H5N1 antiviral – antiviral screen in MDCK cells, H5N1 avian flu. inhibition, % at 50 µM. cytopathic effect, luminescence, 72 h; active compounds read high; no value below 0 was filed and about half of the inactive calls have no number; reference of the scale not given here. 0.07% of 96,000 active. AID 740; in the data active means inhibition above about 25%
* hit, by the source's call; i = inactive. An excerpt (hit frequency here may not be typical).

SMILES	H5N1 antiviral
COc1ccc(CC(=O)Nc2cccc(C(=O)O)c2C)cc1	i
CCN1CCCC1CNC(=O)c1ccc2c(=O)n(CCOC)c(=O)[nH]c2c1 (stereo unspecified)	i
c1ccc(-c2nc3ccccc3nc2-c2ccccn2)nc1	0.6
Nc1ccccc1S(=O)(=O)c1ccccc1N	i
Cc1cc(C(=O)OCC(=O)c2c(N)n(C)c(=O)n(C)c2=O)c(C)n1-c1ccccc1	i
O=C(NCCN1CCN(c2ccccc2)CC1)C1CCCN(S(=O)(=O)c2cnc[nH]2)C1 (stereo unspecified)	0.2
FC(F)(F)c1cc(-c2cccs2)nc(NCc2ccco2)n1	0.2
CC(C)n1c(Nc2ccccc2)nc2ccccc21	0.3
Cc1ccc(-n2c(C)cc(C(=O)OCC(=O)N(CC(C)C)C3CCS(=O)(=O)C3)c2C)cc1 (stereo unspecified)	0.1
CCOc1ccc(-n2nnc3c(=O)n(C/C=C/c4ccccc4)cnc32)cc1	0.0
COc1ccc(CSc2nc(CSC)cc(N3CCOCC3)n2)cc1	0.7
CCOc1ccc(Cn2c(SCCCCC#N)nc3c2c(=O)n(C)c(=O)n3C)cc1OCC	0.4
COC(=O)COc1ccc(S(=O)(=O)N2CCN(c3ccccc3F)CC2)cc1	0.6
CSc1nc(N(CCO)CCO)c2sc3nc(-c4ccco4)c4c(c3c2n1)CCC4	i
Cc1cccc(C(=O)N2CCC(c3nc(-c4ccc(S(=O)(=O)N5CCOCC5)cc4)no3)CC2)c1	0.2
CN1CC2([N+](=O)[O-])CC=C(Oc3ccccc3)C([N+](=O)[O-])(C1)C2 (stereo unspecified)	2.1
CCOC(=O)c1cnc(-n2nc(C)cc2C)nc1-n1nc(C)cc1C	i
Cc1ccccc1NC(=O)CSc1nc2c(c(-c3ccco3)c1C#N)CCCC2	i
COc1ccc(C(CC(=O)O)NC(=O)COc2ccccc2OC)cc1OC (stereo unspecified)	0.1
COc1ccc2[nH]c(=O)c(CN(Cc3ccccc3OC)Cc3nnnn3CC3CCCO3)cc2c1 (stereo unspecified)	2.3
O=S1(=O)C=C(Oc2ccc3ccccc3c2)c2ccccc21	0.2
COCCn1c(SCC(=O)c2ccc(CNC(C)=O)o2)nc2ccccc2c1=O	0.4
Cc1ccc(N2CC(C(=O)Nc3ccc(S(=O)(=O)N4CCCC4)cc3)CC2=O)cc1 (stereo unspecified)	0.9
CCOc1ccccc1NC(=O)C12CC3CC(C1)CC(c1ccc(C)cc1)(C3)C2	i
CCOC(=O)N1CCN(Cc2nc(N)nc(Nc3ccc(Oc4ccccc4)cc3)n2)CC1	i
COc1cc2c(C(=O)NCc3ccc4c(c3)OCO4)cn(CC(C)C)c(=O)c2cc1OC	i
COc1ccc(/C=C2\OC(=O)c3c(OC)cccc32)cc1OC	i
Cc1ccc(-c2noc(C3CCCN(S(=O)(=O)c4ccc(S(=O)(=O)N(C)C)cc4)C3)n2)o1 (stereo unspecified)	0.5
Clc1ccc2c(c1)C(c1cccs1)=NNC(c1cccnc1)=N2	i
OC(Cn1cncn1)c1ccc(Cl)cc1Cl (stereo unspecified)	i
CC(C(=O)O)N1C(=O)CSc2ncccc21 (stereo unspecified)	i
CCOc1ccc(-c2nc(-c3cccnc3)no2)cc1OCC	i
COc1cc(NC(=O)C2CC(=O)NC3=C2C(=O)CC(C)(C)C3)c(OC)cc1Cl (stereo unspecified)	i
COc1ccc2nc(NC(=O)CSc3ccccc3)sc2c1	i
Cc1nc2ccccc2n1-c1ccccc1	1.0
O=C(Nc1nnc(SCC(=O)N2CCCCC2)s1)C1CCCCC1	i
O=C(CN1C(=O)CCC1=O)Nc1ccc(S(=O)(=O)N2CCOCC2)cc1	0.2
COc1ccccc1NS(=O)(=O)c1ccc(C)c(C(N)=O)c1	i
COCCn1nnnc1CN(CCCN1CCOCC1)Cc1cc2c(C)ccc(C)c2[nH]c1=O	i
O=c1ccc(-c2ccccc2)n[nH]1	2.0
CCCNS(=O)(=O)c1ccc(CCC(=O)NCC2CCCO2)cc1 (stereo unspecified)	i
CC1Cc2ccccc2N1C(=O)CCN1C(=O)C2C3C=CC(C3)C2C1=O (stereo unspecified)	0.9
COc1ccc(S(=O)(=O)N(CC(=O)Nc2cccnc2)c2ccccc2OC)cc1	0.2
CC(=O)Nc1ccc(S(=O)(=O)N2CCN(C(=O)CCC3CCCC3)CC2)cc1	2.9
O=C1C2C3C=CC(CC3)C2C(=O)N1/N=C/c1ccc(O)cc1 (stereo unspecified)	i
Cc1nnn(C23CC4CC(CC(C4)C2)C3)n1	i
CC(Oc1ccccc1Br)C(=O)N1CCc2ccccc21 (stereo unspecified)	0.6
O=c1[nH]cnc2sc(-c3ccccc3)cc12	i
Cn1ncc(C#N)c1NC(=O)c1cc(-c2ccccc2Cl)on1	i
O=C(O)c1cnn2c1NC(c1cccs1)CC2C(F)(F)F (stereo unspecified)	0.2

4 compounds from above, ordered by heavy-atom count, falling:
SMILES	H5N1 antiviral
COc1ccc2[nH]c(=O)c(CN(Cc3ccccc3OC)Cc3nnnn3CC3CCCO3)cc2c1 (stereo unspecified)	2.3
Cc1ccc(-n2c(C)cc(C(=O)OCC(=O)N(CC(C)C)C3CCS(=O)(=O)C3)c2C)cc1 (stereo unspecified)	0.1
Clc1ccc2c(c1)C(c1cccs1)=NNC(c1cccnc1)=N2	i
Nc1ccccc1S(=O)(=O)c1ccccc1N	i

Later entries:
SMILES	H5N1 antiviral
COC(=O)C(C)N1C(=O)S/C(=C/c2cc(C)n(-c3ccccn3)c2C)C1=O (stereo unspecified)	0.8
N#Cc1ccc(CNc2cnccn2)cc1	i
CCOC(=O)COc1ccc(S(=O)(=O)NCCC2=CCCCC2)cc1	0.6
COCCNC(=O)CS(=O)Cc1nc(-c2ccc(Cl)cc2)oc1C (stereo unspecified)	0.5
O=S(=O)(c1ccccc1)n1ccc2ccccc21	1.6
O=C(NCc1ccco1)C(Cc1ccccc1)NS(=O)(=O)c1cccc2nsnc12 (stereo unspecified)	1.8
Cc1cc(C)n2nc(SCC#N)nc2n1	i
COc1cccc(CNC(=O)c2ccc(S(=O)(=O)N3CCCC3)cc2)c1	i
CC(=O)Nc1ccccc1C(=O)OCc1ccc(C(=O)c2ccccc2)cc1	i
CCOC(=O)N1CCN(C(=O)CN(Cc2ccccc2)S(=O)(=O)c2ccc(OC)c(C)c2)CC1	1.2
Cc1ccccc1N(CC(=O)N1CCN(c2ccccc2)CC1)S(C)(=O)=O	1.8
CCCCCCC(=O)NC(Nc1ccc(S(N)(=O)=O)cc1)C(Cl)(Cl)Cl (stereo unspecified)	i
CCCn1nnc(NC(=O)c2ccc(OC)cc2)n1	0.3
O=C(C1CCCO1)N1CCc2ccccc21 (stereo unspecified)	i
CC1CCC(C(=O)NC(C(=O)NCCN2CCC(C)CC2)C(C)C)CC1 (stereo unspecified)	i
CC(C)Cn1nc(NC(=O)C2CCCO2)c2cc3ccccc3nc21 (stereo unspecified)	i
COc1ccc(/C(C#N)=C/c2c(-c3ccc(Cl)cc3)nc3c(C)cccn23)cc1	1.1
Cc1ccccc1N1C(=O)c2ccccc2C1Nc1cccnc1 (stereo unspecified)	1.5
CC(C)OC(=O)CC12CN(C)CC(CC(=O)OC(C)C)(CN(C)C1)C2=O	i
COc1ccc(-c2nn(CC(=O)N3CCCCC3)c(=O)c3ccccc23)cc1	i
CC(=O)Nc1ccc(-c2nn[nH]n2)cc1Cl	i
CN(C)c1ccc(C=C2C(=O)OC(C)(C(C)(C)C)OC2=O)cc1 (stereo unspecified)	i
CC(=O)Nc1cc2c(cc1NC(=O)Cn1nc(-c3ccccc3F)ccc1=O)OCCO2	0.3
CCN1CCc2c(C#N)c(NCc3ccccc3)nc(NCCO)c2C1	0.3
Cc1cccn2c(=O)c(C=NCc3ccco3)c(Nc3ccc(SC(F)F)cc3)nc12	i
COC(=O)N1CC(c2ccccc2)CC1=O (stereo unspecified)	0.6
O=C(CN1CCN(c2ccc(F)cc2)CC1)Nc1cccc(C(F)(F)F)c1	0.1
Nc1nc(SCC(=O)c2ccc(Oc3ccccc3)cc2)n[nH]1	0.3
CCOc1cc2[nH]c(=O)n(CC3CCC(C(=O)NCCCOC)CC3)c(=O)c2cc1OCC (stereo unspecified)	0.3
O=C(c1cnccn1)N(c1ccccc1)C1(C(=O)NC2CCCC2)CCCCC1	4.4

Shown in markdown: entries from further up.
| SMILES | H5N1 antiviral |
| --- | --- |
| Nc1ccccc1S(=O)(=O)c1ccccc1N | i |
| O=S1(=O)C=C(Oc2ccc3ccccc3c2)c2ccccc21 | 0.2 |
| FC(F)(F)c1cc(-c2cccs2)nc(NCc2ccco2)n1 | 0.2 |
| Cc1ccccc1N(CC(=O)N1CCN(c2ccccc2)CC1)S(C)(=O)=O | 1.8 |
| Cc1ccccc1NC(=O)CSc1nc2c(c(-c3ccco3)c1C#N)CCCC2 | i |

Next entries follow:
SMILES	H5N1 antiviral
Cc1ccc(C2=CC(c3ccc(N(C)C)cc3)n3nnnc3N2)cc1 (stereo unspecified)	i
Cc1nn(C)c(C)c1S(=O)(=O)N(CC(=O)Nc1nccs1)c1ccc(C(C)C)cc1	1.6
CCc1nc(SCCO)c2oc3ccccc3c2n1	i
Cc1cccc(Cn2c(=O)c3c(nc4n3CCN4Cc3ccco3)n(C)c2=O)c1	1.3
Cc1ccccc1NC(=O)c1ccc(S(=O)(=O)N(C)C)cc1	i
Cc1c(C(=O)N2CCN(c3ccc(F)cc3)CC2)sc2nc(-c3ccccc3)cn12	0.1
O=C(c1ccc(F)cc1)C1CCN(C(=S)Nc2ccccc2)CC1	0.4
COCCn1c(SCC(=O)Nc2cccc(OC)c2)nnc1-c1ccc(Cl)cc1	0.6
c1ccc2c(c1)nc1n2CCN1CCNC1CCCCC1	0.1
COc1cc(CNCCc2c[nH]c3ccccc23)ccc1OCc1ccccc1F	i
Cc1cc(OCC(=O)NCCO)cc(C)c1Cl	i
O=C(Cn1cnc2ccccc2c1=O)N1CCN(Cc2ccccc2)CC1	i
CCOc1ccccc1NC(=O)CC1NCCNC1=O (stereo unspecified)	1.3
COc1cccc(NC(=O)COC(=O)c2c3c(nc4ccccc24)CCC(C)C3)c1 (stereo unspecified)	0.2
COc1cc2c(cc1NC(=O)c1cccc([N+](=O)[O-])c1C)oc1ccccc12	i
CCCN1Cc2cccc(C(=O)N3CCN(c4ccccc4)CC3)c2C1=O	i
Cc1cccc(Nc2ncnc3nc[nH]c23)c1	i
Cc1ccccc1S(=O)(=O)Cc1ccc(C(=O)NCCCN2CCN(C)CC2)o1	0.8
CC(=O)N(c1c(C)n(C)n(-c2ccccc2)c1=O)C1(C(=O)NC2CCCCC2)CCCCC1	0.7
COC(=O)C(C)N(C(=O)c1ccc(C(=O)c2ccccc2)cc1)c1c(C)cccc1C (stereo unspecified)	0.9
CCN(CC(=O)NCCc1ccc(S(N)(=O)=O)cc1)Cc1nc2cc(OC)c(OC)cc2c(=O)[nH]1	1.2
C/C(CC(=O)NCc1ccco1)=N\NC(=O)Cc1cccc2ccccc12	i
CCOC(=O)c1cc(-c2ccccc2)sc1NC(=O)CN1C(=O)NC(CC)(c2ccc(F)cc2)C1=O (stereo unspecified)	i
CCn1cc([N+](=O)[O-])c(C(=O)Nc2nc(-c3ccc(C)cc3)c(C)s2)n1	0.6
CN(c1ccc(C(=O)Nc2ccc3c(c2)OCCO3)cc1)S(C)(=O)=O	0.8
Cc1ccc(N(C(C)C(=O)N2CCC(C)CC2)S(C)(=O)=O)cc1C (stereo unspecified)	0.2
O=C(C1CCN(S(=O)(=O)c2cccc3cccnc23)CC1)N1CCc2ccccc21	0.1
O=C(CCNS(=O)(=O)c1ccc2c(c1)CCC(=O)N2)NCc1ccc2c(c1)OCO2	i
O=C(O)C1CCCCC1C(=O)NCCCc1ccccc1 (stereo unspecified)	i
CC(=O)NCc1cn2c(C)csc2n1	i

Reprinted at random: 4 records from the list.
SMILES	H5N1 antiviral
C/C(CC(=O)NCc1ccco1)=N\NC(=O)Cc1cccc2ccccc12	i
CC(=O)NCc1cn2c(C)csc2n1	i
O=C(C1CCN(S(=O)(=O)c2cccc3cccnc23)CC1)N1CCc2ccccc21	0.1
Cc1ccc(N(C(C)C(=O)N2CCC(C)CC2)S(C)(=O)=O)cc1C (stereo unspecified)	0.2

(cont.)
SMILES	H5N1 antiviral
CC(=O)Oc1ccc2c(C)cc(=O)[nH]c2c1	i
Nc1ccc2c(c1)oc1ccccc12	i
Cc1nc(N2CCCC2C(=O)O)c2oc3ccccc3c2n1 (stereo unspecified)	i
O=C(c1cc(-c2cccs2)on1)N1CCN(c2ccc(F)cc2)CC1	i
COc1ccccc1NC(=O)c1sc2ncn(Cc3cccc(C)c3)c(=O)c2c1C	i
CC(C)NS(=O)(=O)c1ccc(OCC(=O)NCC2CCCO2)c(Cl)c1 (stereo unspecified)	i
Cc1ccc(OCCCC(=O)Nc2ccc(S(=O)(=O)Nc3cc(C)on3)cc2)cc1	i
COc1ccc(-c2nnc(SCc3ccccc3F)o2)cc1OC	0.9
COC(=O)c1[nH]c2cccc(OC)c2c1NC(=O)CCN1CCN(c2ccccc2F)CC1	1.6
COc1cccc(Nc2nc(=O)[nH]nc2C)c1	1.2
COc1ccc(N2CCC(CNC(=O)Nc3ccc(OC)cc3OC)C2)cc1 (stereo unspecified)	i
COc1ccc(C)cc1NC(=O)COC(C)=O	i
Cn1ncc(Cl)c1C(=O)N1CCCc2ccccc21	0.1
Cc1ccc(S(=O)(=O)N2CCCC(c3nc(-c4ccc(C)o4)no3)C2)cc1 (stereo unspecified)	i
CCN(CC)CCC(=O)Nc1ccc2c(c1)N(C(=O)CN(CC)CC)c1ccccc1CC2	0.3
COc1ccc(NC(=S)NC(NC(=O)C(C)C)C(Cl)(Cl)Cl)c([N+](=O)[O-])c1 (stereo unspecified)	i

Laid out differently: 5 of the compounds above
structure | H5N1 antiviral
CCCNS(=O)(=O)c1ccc(CCC(=O)NCC2CCCO2)cc1 (stereo unspecified) | i
CC1Cc2ccccc2N1C(=O)CCN1C(=O)C2C3C=CC(C3)C2C1=O (stereo unspecified) | 0.9
COc1ccc(S(=O)(=O)N(CC(=O)Nc2cccnc2)c2ccccc2OC)cc1 | 0.2
CC(=O)Nc1ccc(S(=O)(=O)N2CCN(C(=O)CCC3CCCC3)CC2)cc1 | 2.9
O=C1C2C3C=CC(CC3)C2C(=O)N1/N=C/c1ccc(O)cc1 (stereo unspecified) | i
